Bioassay records from PubChem BioAssay.
KCNQ2 pot: potentiators of rat KCNQ2 potassium channel. Potassium voltage-gated channel subfamily KQT member 2 (Rattus norvegicus), O88943. CHO-K1 KCNQ2, FluxOR thallium flux fluorescence; hits give high values. B-score at 10 µM. 0.54% of 310,000 active. AID 2239, 2010;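 active = fluorescence ratio B-score at least 3 SD of library B-scores, with initial fluorescence B-score within 3 SD, cut at about 5.3 in these data; same plate scores as AID 2156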;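 note: B-score of peak minus minimum over baseline fluorescence ratio after K+ and Tl+ stimulus; positive B-score means potentiation of KCNQ2 with more thallium influx and brighter signal; only the inactives scoring about 0 or higher are listed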
Target sequence (O88943 whole entry, looked up): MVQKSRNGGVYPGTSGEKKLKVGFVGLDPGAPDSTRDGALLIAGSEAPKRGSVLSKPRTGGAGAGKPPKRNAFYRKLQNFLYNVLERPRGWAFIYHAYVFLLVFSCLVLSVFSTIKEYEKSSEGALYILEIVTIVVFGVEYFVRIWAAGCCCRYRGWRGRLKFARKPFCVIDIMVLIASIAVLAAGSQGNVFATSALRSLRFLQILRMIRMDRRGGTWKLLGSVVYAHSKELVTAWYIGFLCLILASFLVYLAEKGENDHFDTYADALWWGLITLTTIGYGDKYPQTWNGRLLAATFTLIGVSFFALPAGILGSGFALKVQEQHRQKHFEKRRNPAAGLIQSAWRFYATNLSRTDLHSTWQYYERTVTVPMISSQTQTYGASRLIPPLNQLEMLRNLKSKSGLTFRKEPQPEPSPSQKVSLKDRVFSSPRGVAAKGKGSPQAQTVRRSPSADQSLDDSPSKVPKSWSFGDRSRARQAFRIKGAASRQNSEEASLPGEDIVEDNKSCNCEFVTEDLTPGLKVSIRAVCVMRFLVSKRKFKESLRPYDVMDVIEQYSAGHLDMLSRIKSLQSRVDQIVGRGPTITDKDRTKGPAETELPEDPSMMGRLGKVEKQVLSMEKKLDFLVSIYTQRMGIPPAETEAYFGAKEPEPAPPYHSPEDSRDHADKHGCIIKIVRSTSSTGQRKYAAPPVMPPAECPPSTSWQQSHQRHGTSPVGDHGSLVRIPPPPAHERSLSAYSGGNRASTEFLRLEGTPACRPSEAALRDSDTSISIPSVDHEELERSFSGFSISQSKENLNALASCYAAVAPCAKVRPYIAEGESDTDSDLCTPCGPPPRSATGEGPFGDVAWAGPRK
KCNQ2 pot baseline: recorded beside KCNQ2 pot, whose call it bears; B-score; compound at 10 µM; measured here: initial fluorescence intensity artifact check;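 brightness before thallium and not channel activity; 0 = typical well and far values either way flag optical interference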
* = called active by the depositor. An excerpt; rates above refer to the full screens.

SMILES	KCNQ2 pot	KCNQ2 pot baseline
CC1(C)CCC(=O)N2CC[C@H]3C[C@H](OC(=O)Nc4ccc(Br)cc4)C[C@@H]1[C@H]32	0.45	-0.35
CCn1nc(C)cc1C(=O)N1CCCC(Nc2ccc(F)c(F)c2)C1 (configuration not stated)	0.91	1.25
COc1cc(N)ccc1NC(=O)c1cc2ccccc2o1	0.35	-1.79
Fc1ccccc1/C=N/NC(=S)Nc1ccc(Cl)cc1Cl	2.04	0
CN(C)CCNc1nc(S(=O)(=O)c2ccccc2)c(Cl)s1	0.12	-0.71
CCSc1ccc(-c2ccco2)nn1	0.56	-0.79
COc1ccc(C(=O)NCCS(=O)(=O)N2CCCCCC2)cc1	1.51	0.06
Cc1ccc(S(=O)(=O)NC2=NCCC2)cc1	1.97	-0.13
Cc1nn(CCCC(=O)Nc2c(F)cc(F)cc2Br)c(C)c1[N+](=O)[O-]	2.07	0.21
Cc1c(S(=O)(=O)N(C)C2CCCCC2)c(=O)n(C)c(=O)n1C	0.71	0.2
CC(C)[C@H](NC(N)=O)C(=O)NCCc1ccc(Cl)cc1Cl	1.03	1.7
Fc1ccc(Cn2nnc(-c3ccc(Cl)cc3)n2)cc1	0.91	0.07
CCN1CCCC(OC(=O)Nc2ccccc2)C1 (configuration not stated)	0.01	-0.46
O=C(CNCc1ccc(F)cc1)Nc1ccc(S(=O)(=O)N2CCOCC2)cc1	0.07	1.18
CN1CCn2c1nc(N1CCOCC1)nc2=O	1.52	2.83
N#C/C(=C/c1ccco1)C(N)=S	0.81	0.33
COc1cc(OC)cc(C(=O)NCC(=O)OCC(=O)Nc2ncc(Cl)cc2Cl)c1	0.21	1.47
CC(C)Sc1nc2c(c(=O)n(C)c(=O)n2C)n1C	0.14	0.91
CC1CCCCC12NC(=O)N(CC(=O)NCc1ccc3c(c1)OCO3)C2=O (configuration not stated)	0.42	0.11
CCOC(=O)C1CCN(C(=O)CCc2c(C)nc3ncnn3c2C)CC1	1.16	0.77

Four entries from above, as labelled records:
> Cc1nn(CCCC(=O)Nc2c(F)cc(F)cc2Br)c(C)c1[N+](=O)[O-]
  KCNQ2 pot: 2.07	KCNQ2 pot baseline: 0.21
> Cc1c(S(=O)(=O)N(C)C2CCCCC2)c(=O)n(C)c(=O)n1C
  KCNQ2 pot: 0.71	KCNQ2 pot baseline: 0.2
> CC(C)[C@H](NC(N)=O)C(=O)NCCc1ccc(Cl)cc1Cl
  KCNQ2 pot: 1.03	KCNQ2 pot baseline: 1.7
> Fc1ccc(Cn2nnc(-c3ccc(Cl)cc3)n2)cc1
  KCNQ2 pot: 0.91	KCNQ2 pot baseline: 0.07

Continuation:
SMILES	KCNQ2 pot	KCNQ2 pot baseline
O=C(NCCCN1CCOCC1)c1cc(-c2ccc(Cl)s2)nc2ccccc12	0.49	-0.87
O=C(Nc1ccc(N2CCOCC2)cc1N1CCOCC1)c1ccc(Br)cc1	2.02	-0.1
CCOC(=O)CC1=C(C(=O)OCC)C(c2ccc(OC)c(OC)c2)C(C#N)=C(N)O1 (configuration not stated)	1.41	-0.02
COc1ccc(NC(=O)Nc2ccc(C)cc2OC(F)F)cc1OC	1.5	-2.32
COc1cccc(N2CCN(Cc3ccsc3)CC2)c1	0.18	1.04
CC(C)Cc1cc(C(=O)N2CCCC(C(=O)c3cc(F)ccc3F)C2)no1 (configuration not stated)	0.04	-0.48
O=c1oc2ccccc2c(NC2CCCCC2)c1NS(=O)(=O)c1ccc(Cl)cc1	1.08	-0.04
CCOc1ccc(CCNC(=O)CN2CCN(Cc3ccc(F)cc3)C2=O)cc1OCC	1.1	-0.53
N#Cc1nc(-c2cccs2)oc1NCCN1CCOCC1	0.93	-0.66
Cc1nn(C(C)C(=O)NC2CCCCCC2)c(=O)c2nn(-c3ccccc3)c(C)c12 (configuration not stated)	0.7	0.63
Cc1noc(C)c1COc1ccccc1C(=O)N(C)CC(=O)Nc1ccc(Cl)c(Cl)c1	0.16	-3.02
C=CCNC(=O)c1cc(-c2ccc(Br)cc2)on1	0.11	-1.23
COC(=O)Cn1c(=O)c(C)nc2ccccc21	1.49	0.75
O=C(NCc1cccc(F)c1)c1cccc(OC2CCN(C(=O)C3CC3)CC2)c1	2.92	1.99
COc1ccc(CCNC(=O)C(=O)NCC2CCCN2S(=O)(=O)c2cccs2)cc1 (configuration not stated)	0.79	-0.16
CCOC(=O)c1c(NC(=O)c2ccc(S(=O)(=O)N3CCOCC3)cc2)sc2c1CCN(C)C2	3.04	-0.01
O=C1c2cccc3cccc(c23)C(=O)N1/N=C/c1ccc(O)cc1O	0.91	0.08
O=C(CN1C(=O)NC2(CCCC2)C1=O)N1CCN(S(=O)(=O)c2ccc(Cl)c(C(F)(F)F)c2)CC1	2.23	-0.01
COc1ccccc1NC(=O)C(=O)N/N=C(\C)CC(=O)Nc1ccccc1C(F)(F)F	0.01	0.01
N/C(=N\OC(=O)c1ccccc1Cl)c1ccncc1	0.38	0.74
CCCS(=O)(=O)N1CCCC(C(=O)NCc2cccnc2)C1 (configuration not stated)	0.87	0.01
CC(NC(=O)CS(=O)(=O)c1ccccc1)c1ccccc1 (configuration not stated)	0.8	0.16
COc1ccc2nc(COC(=O)c3cccc([N+](=O)[O-])c3)c(C(C)=O)[n+]([O-])c2c1	0.73	0.44
O=C(/C=C/c1ccc(OCCCF)cc1)Nc1ccnc(-c2cccnc2)n1	1.79	1.51
Cn1cc(CC(=O)NCCCN2CCCC2=O)c2ccccc21	0.52	-0.03
COCCNC(=O)c1ccc2c(c1)nc(C)n2-c1cccc(F)c1	0.56	0.82
CN1CCN(CCC(=O)N/N=C/c2cc([N+](=O)[O-])ccc2O)CC1	0.08	1.5
CC(C)c1cc(C(N)=O)c(NC(=O)C2CCC2)s1	0.52	1.52
O=C(NCc1ccc2c(c1)OCO2)c1ccc(S(=O)(=O)C(F)F)cc1	0.29	0.67
CCOc1ccc(C2/C(=C(\O)c3ccc(OC)c(OC)c3)C(=O)C(=O)N2c2cc(C)on2)cc1OC (configuration not stated)	1.1	-0.13
Cn1c(=O)c2c(SC3CCCC3)nc(C3CC3)nc2n(C)c1=O	0.61	1.33
c1ccc2c(c1)nc(N1CCCCC1)c1ccccc12	1.62	-1.32
COc1ccc(-n2nc3c(c2NC(=O)CBr)CSC3)cc1	0.04	0.91
CCOc1ccccc1N1CC(C(=O)N(C)Cc2cccnc2)CC1=O (configuration not stated)	0.05	4.04
COc1cc(CCN2C(=O)c3cccc4cccc(c34)C2=O)c(S(=O)(=O)NCCO)cc1OC	2.54	-1.44
COc1ccc(C(=O)Nc2cc(OC)cc(OC)c2)cc1	4.39	-0.95
COc1ccc2c(c1)-c1ccccc1S(=O)(=O)N2C(C)=O	1.85	0.33
Cc1ccc(NC(=O)CCNS(=O)(=O)c2cc(Br)cnc2N)c(Cl)c1	0.75	-0.14
Cc1ccc(Cn2c(=O)n(C)c(=O)c3sccc32)cc1	0.49	0.52
COc1ccccc1N1CCN(CC(O)c2ccc3cc[nH]c3c2)CC1 (configuration not stated)	0.46	-0.16
O=C(Nc1ccc(Oc2ccc(C(=O)O)c(C(=O)O)c2)cc1)c1cccs1	0.02	0.89
Cc1cc(F)ccc1S(=O)(=O)N1CCCOC1CNC(=O)C(=O)NCc1ccco1 (configuration not stated)	0.5	-0.02
COC(=O)CN(c1c(C)cccc1C)S(C)(=O)=O	0.54	-1.62
CCC(=O)N1c2ccccc2C(N(C(=O)CC)c2ccccc2)CC1C (configuration not stated)	0.03	2.92
O=C(CSc1nnnn1-c1ccc2c(c1)OCO2)NCc1ccccc1	0.67	-0.72
CC(C)CCOc1ccc(C(=O)O)cc1	0.03	-1.04
CN1CCN(Cc2c(C(=O)N3CCc4ccccc4C3)nc3ccc(Cl)cn23)CC1	0.01	2.49
COC(=O)C1CCCN1C(=O)C1CCCN1C(=O)CNC(=O)OCc1ccccc1 (configuration not stated)	2.38	-1.14
CCOC(=O)c1c(C)c[nH]c1C	0.36	0.01
CCc1cc(C(=O)N(Cc2ccccc2)c2c(N)n(CCOC)c(=O)[nH]c2=O)sc1C	0.07	-0.17
Cc1ccc(C)c(NC(=O)CN(C)C(=O)[C@@H](NC(=O)c2ccc(C(C)(C)C)cc2)C(C)C)c1	0.84	-0.58
COc1ccc(/C=C(\NC(=O)c2ccc(Cl)cc2)C(=O)NCC2CCCO2)cc1OC (configuration not stated)	0.03	-1.62
Cc1ccc2c(c1)c1nnc(SCC(=O)Nc3ccc(N(C)C)cc3)nc1n2CC(=O)O	0.78	-1.4
C/C(=N\O)C(=O)NCCCNCCCN(C)C	0.66	-0.5
CCOc1ccccc1NC(=O)Cn1c(-c2ccc(Cl)cc2)noc1=O	0.16	-0.21
O=C(/C=C/c1ccccc1)N(Cc1ccc(Cl)cc1)C1CCS(=O)(=O)C1 (configuration not stated)	0.73	1.98
CCOC(=O)c1[nH]c2ccc(OC)cc2c1C	1.34	0.01
CC(=O)NCCn1c(SCC(=O)Nc2ccc(C)cc2)nc2ccccc2c1=O	1.12	1.11
S=C(Nc1ccc2snnc2c1)N1CCN(c2ccccn2)CC1	0.31	-1.1
CC(=O)Nc1ccc(S(=O)(=O)N2CCCCC2c2cccnc2)cc1 (configuration not stated)	1.11	1.4

Profiles, quoted from the list. Screens in order: KCNQ2 pot, KCNQ2 pot baseline
O=C(CSc1nnnn1-c1ccc2c(c1)OCO2)NCc1ccccc1 is entered as 0.67, -0.72
CCOc1ccccc1NC(=O)Cn1c(-c2ccc(Cl)cc2)noc1=O is entered as 0.16, -0.21
CCOC(=O)c1c(C)c[nH]c1C is entered as 0.36, 0.01

Remaining list, next part.
SMILES	KCNQ2 pot	KCNQ2 pot baseline
C1CCCN(c2nc3nonc3nc2N2CCCCCC2)CC1	1.78	3.23
CCN(CC)C(=S)Nc1ccc(OC)cc1	0.03	-1.69
CCNC(=O)N1CCCC(C(=O)c2ccc3cc(OC)ccc3c2)C1 (configuration not stated)	0.62	2.25
O=S(=O)(NCc1ccccc1Cl)c1cccs1	0.22	0.52
COc1cc(OC)c2c(O)c3c(c(-c4c5c(c(O)c6c(OC)cc(OC)cc46)CO[C@@H](C)[C@H]5O)c2c1)[C@H](O)[C@H](C)OC3	3.83	0.5
NC(=O)CC(NC(=O)Cc1ccc(Br)cc1)c1ccc(NC2CCN(Cc3ccccc3)CC2)c([N+](=O)[O-])c1 (configuration not stated)	0.9	0.41
Cc1ccc2nc(-c3ccccn3)oc2c1	1.42	0.9
CCOC(=O)C(C(=O)NCc1cccc(OC)c1)c1ncc(C(F)(F)F)cc1Cl (configuration not stated)	0.34	-2.22
Cn1c(CSCc2ccccc2)nnc1SCC(=O)Nc1nccs1	1.17	-0.85
COc1ccc(CN2CCSCC2)cc1C	0.11	-0.31
N/C(=N\OC(=O)c1cccnc1)c1ccc(Cl)cc1Cl	0.96	0.03
COCC(=O)Nc1ccccc1NC(C)=O	1	-2.3
O=C1CC(C(=O)Nc2ccccc2)N=C(N2CCCCC2)N1 (configuration not stated)	2.64	-0.41
COc1ccc(-c2nc3ncccc3o2)cc1NC(=O)c1cccs1	0.18	0.04
c1ccc(CSc2snnc2-c2ccccc2)cc1	0.34	1.04
Cc1csc2c(=O)sc(NC(=O)c3ccc(F)cc3Cl)nc12	0.73	-0.59
NC(=O)c1cc(S(=O)(=O)NCc2cccs2)cs1	0.14	1.47
Cc1nn2c(=O)cc(CSCC(=O)Nc3ccccc3F)nc2s1	0.49	-0.36
O=S(=O)(Nc1cccc(C(F)(F)F)c1)c1cnc[nH]1	0.25	-0.43
CCOc1nc2c(c(-c3cccs3)c1C#N)Cc1ccccc1-2	0.73	2.8
Cc1ccc2nc(-c3cccnc3)c(NC3CCCCC3)n2c1	0.48	0.07
O=C(NCc1cccnc1)C1CCC(CNS(=O)(=O)c2cccc3nsnc23)CC1 (configuration not stated)	0.69	-0.51
CCC(CC)C(=O)Nc1cccc(C(=O)Nc2ccc3c(c2)OCO3)c1	0.03	-1.9
O=C(NCc1cccc(Cl)c1)c1ccc(S(=O)(=O)Nc2cccc(C(F)(F)F)c2)cc1	1.04	-0.6
COc1ccc(-n2nc(C(=O)NCC(=O)NCCCN3CCOCC3)c3ccccc3c2=O)cc1Cl	1.71	0.29
CC(=O)Nc1cc(C(F)(F)F)ccc1N1CCOCC1	0.43	-0.15
COc1ccc(CC(=O)N2CCCc3ccccc32)cc1OC	1.3	-0.12
CC(C)(C)c1cc(NC(=O)COC(=O)c2ccc(O)cc2O)n(-c2ccccc2)n1	3.68	-0.6
COC(=O)c1cc(Br)c(=O)n(CCC2=CCCCC2)c1	0.34	3.21
CCc1ccc(N2C(=O)CN(Cc3sccc3C)C2=S)cc1	0.95	-0.04
CCOC(=O)CSc1nccc(N(C)C)c1C#N	1.05	1.64
COC(=O)c1ccc(NC(=O)CSc2nnc(CNc3ccc(F)cc3)n2C)cc1	1.08	-0.1
COc1nc(Oc2ccc(C(=O)O)cc2)nc(Oc2ccc(C(=O)O)cc2)n1	0.03	-0.81
CC(C)(C)NC(=O)C(c1cccnc1)N(C(=O)c1csnn1)c1ccccc1 (configuration not stated)	1.7	0.24
COCCCNCCOCCSc1ccc(Cl)cc1	1.99	-0.18
CCOC(=O)c1sc(NC(=S)NC(=O)c2ccco2)nc1C	5.7*	0*
O=C(CN1CCN(c2ccccn2)CC1)Nc1ccc([N+](=O)[O-])cc1C(=O)Nc1ccccc1F	3.41	-0.34
Cc1ccc(N2CN=C3SCC(=O)N3C2)cc1C	0.03	0.62
CCOC(=O)CC1COCCN1Cc1cn[nH]c1-c1ccc2c(c1)OCO2 (configuration not stated)	0.25	1.83
COC(=O)C1=C(C(=O)OC)[N+]2=C3N(C(=O)NC2(C)C)[C@H](CO)C[C@@]32c3ccccc3N(Cc3ccccc3)[C@@H]12	0.2	0
